Sa ugtP lethal: growth inhibition of S. aureus ugtP deletion strain; S. aureus RN4220 ugtP deletion, OD600 growth, 16 h; some inactives read as strong as hits; growth inhibition, % (concentration not given with the values); hit rate 0.54% among 330,000; AID 1259309;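 active = z-score under -3 and OD600 up to 0.15 on both plates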;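 note: plate controls were untreated wells for no effect and antibiotic for full effect; wells of about 80 µL received 100 nL stock; the first replicate is given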
PrP 5UTR inh: suppresses PrP 5' UTR mRNA reporter expression; cell-based PrP 5' UTR mRNA reporter, plate reader; inhibition, % (no concentration beside the values); hit rate 0.35% among 340,000; AID 488862;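 active = every replicate at 50% or more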;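 note: 0 = median of the neutral control wells; tested in H4 reporter cells; numbers are from one replicate; inactives centre near -14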
BJeLR lethal: BJeLR cell viability loss | BJeLR (HRASV12) viability, CellTiter-Glo ATP luminescence, 48 h; reference of the scale not given here | inhibition, % (test concentration not listed) | hit rate 0.17% among 300,000;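 active = replicate mean above 50%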;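 note: 50 nL library stock added to about 25 µL; numbers are from one replicate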
Autofluor counter: counter-screen for toxin protease inhibitors: compound fluorescence; compound autofluorescence counterscreen, microsphere flow cytometry; hits give high values; fluorescence intensity (no concentration beside the values); hit rate 3.1% among 360,000;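 active = at least 3 SD above the mean of all compounds, about 16000 in these data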;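 note: 100 nL of 1 mM stock went into each well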
Sa RN4220 lethal: S. aureus RN4220 growth inhibition | AID 1259311 | inhibition, % (concentration not given with the values) | OD600, 16 h | hit rate 0.33% among 330,000;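 active = z-score of -3 or lower and OD600 up to 0.18 on both plates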;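 note: plate controls were untreated cells for no effect and reference antibiotic for full effect; stock transfer was 100 nL into about 80 µL; one replicate is shown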
Mtb hypoxia inh: inhibitors of hypoxia-regulated fluorescent reporter in Mycobacterium tuberculosis; M. tuberculosis hypoxia-regulated fluorescent reporter, fluorescence; hit rate 0.1% among 300,000; fluorescence inhibition, % (no concentration beside the values);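 active = 35 to 45% if threefold the growth effect, above 45% if 1.5-fold the growth effect; inactive = the rest, general growth blockers included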;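 note: wells of about 50 µL received 100 nL stock; 0% = vehicle wells and 100% = reference inhibitor wells; whole bacteria with a GFP reporter of the hypoxia response; strong numbers were not always called active; many hits fall short of the cut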
Mtb hypoxia inh growth: recorded beside Mtb hypoxia inh, whose call it bears; growth inhibition, %; measured here: M. tuberculosis growth (absorbance);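 0% = vehicle and 100% = reference antibiotic; read after six days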
* = called active by the depositor; . = not tested or not shown.

SMILES | Sa ugtP lethal | PrP 5UTR inh | BJeLR lethal | Autofluor counter | Sa RN4220 lethal | Mtb hypoxia inh | Mtb hypoxia inh growth
CSCCC(NC(=O)COc1ccccc1)C(=O)NCc1cccs1 (configuration not stated) | 0 | -14 | 0 | 4993 | 2.1 | -5 | -7
CCOC(=O)c1ccc(-n2c(-c3ccco3)nc3ccccc3c2=O)cc1 | -5 | 3 | -1 | 8741 | 5.7 | 4 | 8
CCOC(=O)C1=C(COc2ccccc2)NC(=O)NC1c1ccc(Cl)cc1 (configuration not stated) | -15 | -16 | -15 | 4349 | -9.2 | 3 | 7
CC(=O)Nc1c(O)nc(SCC(=O)N2CCN(c3ccc(F)cc3)CC2)[nH]c1=O | 0 | -1 | 19 | 12908 | 2.1 | 5 | 0
CN1C(=O)CC(c2ccccc2)CC1=O | . | -9 | 0 | 3081 | . | . | .
COC(=O)C1=C(c2ccc(OC(F)(F)F)cc2)CC2CCC1N2C(=O)NC1CC1 (configuration not stated) | -2 | . | . | . | 2.9 | 5 | 5
CCOc1ccc(N2C(=O)NC(=O)/C(=C\c3cc(OC)c(OC)cc3[N+](=O)[O-])C2=O)cc1 | 4 | 13 | 1 | 1973 | 1.3 | 9 | 3
CC(C)OC(=O)CSc1nc2cccnc2n1C1CCCCC1 | 13 | -16 | 8 | 2843 | 1.8 | . | .
Cc1cc(C)c2c(C)c(C(=O)Nc3c(C)n(C)n(-c4ccccc4)c3=O)oc2c1 | 3 | -12 | -7 | 2122 | -3.5 | -12 | -9
NC(=NOC(=O)c1cc(Br)ccc1Cl)c1cccnc1 | 5 | . | . | . | 5.2 | 8 | 10
COC(=O)C[n+]1cccc2ccccc21 | -3 | -1 | 4 | 6034 | 1.7 | 3 | -7
Cc1noc(C)c1C(=O)NCCCc1ccccc1 | 7 | . | 7 | 8532 | 1.7 | 12 | -2
CC1CCCN(C(=O)CN2C(=O)NC(C)(c3ccc4ccccc4c3)C2=O)C1 (configuration not stated) | -1 | -26 | . | 3675 | -0.5 | 5 | 8
CCCn1nnnc1NCc1cccn1C | -1 | -18 | -5 | 11322 | -1.9 | 0 | 6
Cc1ccc(C)c(NC(=O)c2cnccn2)c1 | 10 | -20 | 4 | 13502 | -2.8 | 7 | -2
CCNS(=O)(=O)c1ccc(NC(=O)c2cc(C(F)(F)F)nn2C)cc1 | -1 | -18 | -2 | 2514 | -8.8 | -1 | 0
O=c1[nH]c(=O)n(-c2cccc3ccccc23)c(O)c1/C=N/N1CCCCC1 | 1 | -9 | -8 | 4106 | 2.1 | 12 | 6
CC(c1nccs1)N(C)C(=O)c1cn(Cc2cccc3ccccc23)nn1 (configuration not stated) | 4 | -56 | 0 | 5475 | 0.6 | 4 | 5
CC(C)Cc1nnc(NC(=O)CCN2C(=O)c3ccccc3C2=O)s1 | 14 | -7 | 5 | 6334 | 0.3 | 12 | 7
NC(=O)NCc1ccc(Cl)cc1 | 5 | -1 | 9 | 8060 | -3.4 | 4 | -1
CC1CC(C)CN(S(=O)(=O)c2ccc(NN)nc2)C1 (configuration not stated) | -8 | -29 | 2 | 4302 | 1.9 | -25 | 4
CCOC(=O)c1nnn(-c2nonc2N)c1-c1cccs1 | 12 | -6 | 15 | 3796 | 1.7 | . | .
Cc1nc(NC(=O)CSc2nnc3ccccn23)c(Cl)cc1Cl | 4 | -16 | -4 | 3856 | 5.3 | 9 | -1
O=C1CC(c2ccccc2)C(=O)N1c1cccc(O)c1 (configuration not stated) | 2 | -10 | -1 | 2611 | -1.7 | . | .
O=C1N/C(=N\c2ccccn2)SC1Cc1ccc(Cl)cc1 (configuration not stated) | 8 | 5 | 4 | 3085 | 4.6 | 17 | 7
O=C(C1CCN(S(=O)(=O)c2ccc(Br)s2)CC1)N1CCN(C2CCCCC2)CC1 | -1 | -15 | 7 | 4846 | 3.1 | 4 | -1
CC(C)(C)NC(=O)NC(=O)COC(=O)CCCc1c[nH]c2ccccc12 | -4 | -26 | -4 | 24864* | 7.0 | 0 | 1
Cc1cc(-n2cnc3c(=O)[nH]cnc32)ccc1N | 3 | -19 | 4 | 3670 | 1.0 | 2 | 2
N#Cc1c(NC(=O)Cn2nc(C(F)(F)F)c3c2CCCC3)sc2c1CCC2 | -5 | -30 | 6 | 9068 | 6.2 | 7 | 0
Cc1ccc2cc(C3CC(c4ccco4)=NN3C(=O)CCC(=O)O)c(Cl)nc2c1 (configuration not stated) | 8 | -15 | 1 | 2547 | 3.6 | 4 | 2
CCN1CCN(C(=O)COc2ccc(S(=O)(=O)NC(C)C)cc2)CC1 | 6 | -9 | 21 | 10117 | 7.4 | 12 | 4
Cc1ccccc1NC(=O)CCN1CCN(C)CC1 | 0 | -23 | 15 | 3835 | 2.9 | 4 | 10
Cc1cc(=O)[nH]c(NN=Cc2ccc(O)c(O)c2)n1 | -3 | . | . | . | -1.1 | -9 | -10
O=c1c2ccccc2nc(N2CCCC2)n1-c1ccc(Cl)cc1 | 27 | -38 | 2 | 22940* | -1.0 | 3 | -9
CN1C(C)(C)c2ccccc2OS1(=O)=O | -3 | -2 | -12 | 3446 | 8.1 | 9 | -2
COC(=O)C(CSCc1ccccc1)NC(=O)CSc1nc(N)cc(=O)[nH]1 (configuration not stated) | 8 | -8 | -5 | 2502 | 5.7 | 1 | 3
CCC(C)(C(=O)NC1CCCCC1)N(C(=O)c1cnccn1)c1c(C)n(C)n(-c2ccccc2)c1=O (configuration not stated) | 4 | -32 | -16 | 21469* | 1.3 | -1 | 2
O=C(CN1CCOCC1)NCc1ccc(F)cc1 | 5 | -1 | 6 | 3652 | 3.6 | 17 | 11
COc1ccc(/C=N/NC(=O)c2ccc(COc3cccc4cccnc34)cc2)cc1OC | . | -22 | 7 | 4692 | . | . | .
CC(C)Cn1c(N)c(C(=O)COC(=O)c2ccc3ccccc3n2)c(=O)n(C)c1=O | -1 | -21 | 5 | 4090 | -0.9 | 4 | -1
COc1cccc(C(=O)N2CCN(C(=O)C3CC3)CC2)c1 | 10 | -14 | -20 | 5853 | 1.6 | 7 | 3
O=C(CSc1ccc(-c2ccccc2)nn1)NCC1CCCO1 (configuration not stated) | 1 | -18 | 4 | 3401 | 2.4 | 7 | 2
CC(c1ccco1)N(C(=O)c1ccc(Cl)c([N+](=O)[O-])c1)c1ccccn1 (configuration not stated) | 2 | -17 | 4 | 3884 | 1.2 | -1 | 16
COC(=O)c1[nH]c2cccc(OC)c2c1NC(=O)CN1CCOCC1 | -8 | -17 | -2 | 2909 | -9.1 | 0 | 6
CN(c1ccccc1)c1ccc(/C=N/N2CCOCC2)cc1 | . | -173 | -2 | 2151 | . | . | .

4 of these compounds in a different format:
smiles	Sa ugtP lethal	PrP 5UTR inh	BJeLR lethal	Autofluor counter	Sa RN4220 lethal	Mtb hypoxia inh	Mtb hypoxia inh growth
COc1ccc(/C=N/NC(=O)c2ccc(COc3cccc4cccnc34)cc2)cc1OC	.	-22	7	4692	.	.	.
COC(=O)C(CSCc1ccccc1)NC(=O)CSc1nc(N)cc(=O)[nH]1 (configuration not stated)	8	-8	-5	2502	5.7	1	3
CCC(C)(C(=O)NC1CCCCC1)N(C(=O)c1cnccn1)c1c(C)n(C)n(-c2ccccc2)c1=O (configuration not stated)	4	-32	-16	21469*	1.3	-1	2
Cc1cc(=O)[nH]c(NN=Cc2ccc(O)c(O)c2)n1	-3	.	.	.	-1.1	-9	-10

The listing continues.
SMILES | Sa ugtP lethal | PrP 5UTR inh | BJeLR lethal | Autofluor counter | Sa RN4220 lethal | Mtb hypoxia inh | Mtb hypoxia inh growth
COc1cc(/C=N/NC(=O)C(=O)NCC2CCCO2)ccc1O (configuration not stated) | . | 2 | -5 | 6915 | . | . | .
CCOc1ccccc1N(C)S(=O)(=O)c1ccc2c(c1)CCN2C(=O)CCC(=O)O | 3 | -13 | 2 | 4300 | 2.6 | 0 | 10
C=C(C)C(COc1c2occc2cc2ccc(=O)oc12)OC(C)(C)C(O)COc1c2occc2cc2ccc(=O)oc12 (configuration not stated) | 6 | -6 | . | 4393 | 9.7 | . | .
O=c1c(-c2ccc(O)cc2)coc2c([C@@H]3O[C@H](CO)[C@@H](O)[C@H](O)[C@H]3O)c(O)ccc12 | -4 | -10 | . | 4081 | -11 | 9 | 8
O=C(N/N=C/c1coc2ccc(Cl)cc2c1=O)c1ccncc1 | . | -6 | 2 | 6306 | . | . | .
CCOc1ccc(OCCN2C(=O)c3ccccc3C2=O)cc1 | 7 | -37 | 2 | 5199 | 1.8 | 2 | 11
CCOc1ccccc1CN1CCCC(CNC(=O)Cc2ccc(OC)cc2)C1 (configuration not stated) | 9 | -17 | 2 | 3154 | -1.7 | 2 | -9
CCOc1ccc(CN(CC)C(=O)Cc2c[nH]c3ccccc23)cc1OC | 3 | -34 | 2 | 5117 | 3.9 | -5 | -2
CCC(C)(C)NC(=O)C(c1cccnc1)N(C(=O)c1csnn1)c1ccc(C)cc1 (configuration not stated) | 6 | -36 | 5 | 3217 | 2.0 | 14 | 6
O=[N+]([O-])c1ccc(NN=Cc2c[nH]c3ccccc23)cc1 | 22 | . | . | . | 53 | 12 | 6
COc1ccc(NCCC(O)c2ccc(Cl)cc2)cc1 (configuration not stated) | 12 | . | -12 | 4067 | 0.1 | 21 | 14
c1ccc(CCc2ccccc2-c2nc(-c3ccccn3)no2)cc1 | -4 | -4 | 3 | 2453 | -2.0 | 6 | -2
O=C(COC(=O)c1ccc(Cl)nc1)Nc1ncc(Cl)cc1Cl | 6 | -13 | -3 | 4323 | -9.1 | 7 | 12
CCCCCOc1ccc(CN2CCOCC2)cc1Cl | 59 | -46 | -7 | 3919 | 2.2 | 14 | 9
Cc1cc(O)c(N=Nc2ccc(C(=O)O)cc2)cc1C | -8 | -81 | . | 3527 | 3.9 | 10 | 14
CC1CCN(C(=O)COC(=O)c2ccc3c(c2)OCO3)CC1 | 5 | -36 | 0 | 3849 | -4.1 | 14 | 8
O=C(CN(Cc1ccc2c(c1)OCO2)C(=O)CNS(=O)(=O)c1ccccc1)NCc1ccco1 | 2 | -26 | -3 | 2712 | 0.5 | . | .
CSc1ncccc1C(=O)N1CCCC(CCC(=O)NCc2ccccc2F)C1 (configuration not stated) | 8 | -17 | -5 | 2202 | 3.0 | 5 | 11
CC(C(=O)c1ccccc1)[n+]1cccc(Br)c1 (configuration not stated) | 1 | -25 | 4 | 3789 | -2.4 | 6 | 11
CCOc1ccc(NC(=O)Cn2nnc(-c3ccc(C(N)=O)cc3)n2)cc1S(=O)(=O)N1CCCC1 | -4 | -4 | . | 4441 | 0.2 | -8 | -2
CCOc1ccc(C(=O)N2CCN(S(=O)(=O)c3ccc4c(c3)OCCO4)CC2)cc1OCC | 3 | -7 | . | 6052 | 1.7 | -6 | 3
Cc1cccc(OCC(=O)Nc2ccc3c(c2)OCCO3)c1 | 3 | -78 | . | 5053 | -1.8 | . | .
CCCOc1ccc(C(=O)NCCCn2ccnc2)cc1 | -4 | -23 | 1 | 3269 | 0.8 | 5 | 6
CC(=O)Nc1ccc(N=Cc2ccc(OCc3ccccc3)cc2)cc1 | 8 | -37 | -3 | 2434 | 6.8 | -6 | -4
COc1cccc(/C=N/NC(=O)CNC(=O)/C=C\c2ccccc2)c1O | . | -7 | 0 | 5023 | . | . | .
COC(=O)C(=Cc1ccc(-c2ccsc2C(=O)OC)o1)C(=O)OC | 3 | -35 | 1 | 5741 | 4.1 | -3 | -10
Cc1nn2c(NCc3cccnc3)c3c(nc2c1-c1ccccc1)CCC3 | -8 | -16 | -5 | 3689 | 2.4 | 5 | 4
CC(C)(C)C(=O)Nc1ccc(Cc2ccncc2)cc1 | . | -13 | -17 | 3861 | . | . | .
CCCCCCCC1CC(/C(C)=N/NC(N)=O)OC1=O (configuration not stated) | . | -104 | 8 | 8007 | . | . | .
O=C(Nc1cccc(C(=O)N2CCN(Cc3ccccc3)CC2)c1)c1ccccc1 | 1 | -7 | -2 | 4641 | -3.8 | . | .
CCN(Cc1ccccc1)C(=O)c1oc2ccc(S(=O)(=O)N3CCOCC3)cc2c1C | 4 | -11 | -1 | 5411 | 2.9 | -1 | 1
O=C1CN(C(=O)c2ccccc2Br)C(c2ccc(F)cc2)c2cc(F)ccc2N1 (configuration not stated) | -3 | -1 | 11 | 3904 | 3.4 | -3 | 8

Rewritten with values under each structure: part of the list above.
Results follow in this order: Sa ugtP lethal, PrP 5UTR inh, BJeLR lethal, Autofluor counter, Sa RN4220 lethal, Mtb hypoxia inh, Mtb hypoxia inh growth
- CCNS(=O)(=O)c1ccc(NC(=O)c2cc(C(F)(F)F)nn2C)cc1
    -1, -18, -2, 2514, -8.8, -1, 0
- O=c1[nH]c(=O)n(-c2cccc3ccccc23)c(O)c1/C=N/N1CCCCC1
    1, -9, -8, 4106, 2.1, 12, 6
